# RanGTP-Imp inh: inhibitors of RanGTP-importin-beta interaction, primary screen, biochemical, FRET, CFP-Ran, YFP-importin-beta, homogeneous. inhibition, % (test concentration not listed). hit rate 1.1% among 300,000. cell-free CFP-Ran/YFP-importin-beta FRET ratio. AID 2216;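 active = most replicates above 15%; inconclusive = exactly half above 15%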;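 note: 0% = DMSO wells and 100% = Ran loaded with GDP instead of GTP; wells of about 40 µL received 100 nL stock; the first replicate is given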
# A1 inh: inhibitors of the anti-apoptotic protein A1, read as caspase activation. MEF A1-2A-BIM cells, Caspase-Glo 3/7 luminescence, 3 h; percent of clofoctol response, vehicle zero. caspase activation, % (no concentration beside the values). hit rate 0.066% among 330,000;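 active = over half of replicate activation scores above 10%, or exactly half above 10 with the replicate mean above 10; inconclusive = replicate mean below 10 yet half the replicates above 10; inactive = over half of replicates below 10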;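 note: wells of about 30 µL received 50 nL stock; many hits fall short of the cut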
# LANA-H2B inh: blocks KSHV LANA binding to histone H2A/H2B. Q9QR71. cell-free LANA-H2A/H2B peptide, fluorescence polarization. inhibition, % (no concentration beside the values). hit rate 0.6% among 320,000; in the data active = inhibition mostly above about 10%, no sharp cut-off; inactive = mostly below about 6.7%;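 note: stock transfer was 7.5 nL into about 10 µL; 0% = median of vehicle wells and 100% = median of positive control wells; one replicate is shown; the record names a cut of 25% in any replicate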
# Beta cell apopt: beta cell apoptosis inhibition; protection from apoptosis, % (test concentration not listed); INS-1E cytokine-induced death, ATP luminescence, 48 h; percent of positive-control rescue, neutral wells zero; hit rate 0.8% among 300,000; AID 435005;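 active = all replicates at 75% or more, or half of them and the mean; inconclusive = half reach 75% but not the mean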;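 note: 0% = cytokine-treated negative control wells and 100% = positive control rescue; higher means more ATP so stronger rescue from cytokine killing; wells of about 40 µL received 100 nL stock; the first replicate is given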
# Beta2AR agonist: human beta-2 adrenergic receptor agonism by FAP; Am2.2-beta2AR cells, FAP receptor internalization, flow cytometry; reference of the scale not given here; AID 504454; response, % (concentration not given with the values); hit rate 0.43% among 340,000; P07550;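 active = response above a set limit, near 3 SD of response in nonfluorescent compounds, cut at about 42% in these data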;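 note: stock transfer was 100 nL into about 11 µL; a reference agonist was the positive control; negative values mostly stem from fluorescent compounds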
# Target sequence (P07550 whole entry, looked up): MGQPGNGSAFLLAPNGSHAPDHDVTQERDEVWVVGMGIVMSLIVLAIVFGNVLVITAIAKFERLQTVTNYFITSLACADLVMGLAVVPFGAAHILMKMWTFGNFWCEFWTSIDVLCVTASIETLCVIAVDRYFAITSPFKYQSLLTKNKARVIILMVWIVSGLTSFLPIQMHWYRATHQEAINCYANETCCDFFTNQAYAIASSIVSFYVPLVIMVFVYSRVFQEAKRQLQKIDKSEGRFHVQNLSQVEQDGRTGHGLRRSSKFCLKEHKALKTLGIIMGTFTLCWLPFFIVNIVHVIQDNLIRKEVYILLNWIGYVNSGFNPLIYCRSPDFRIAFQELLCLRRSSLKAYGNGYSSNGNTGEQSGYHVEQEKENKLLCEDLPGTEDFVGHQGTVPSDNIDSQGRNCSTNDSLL
# UCH37 inh: inhibitors of human deubiquitinating enzyme UCH37; purified proteasome/UCH37, Ub-AMC cleavage fluorescence; inhibition, % (no concentration beside the values); hit rate 0.33% among 330,000; AID 588478;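 active = mean of two replicates above 20%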;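 note: 0% = compound-free wells with enzyme and 100% = wells lacking proteasome; stock transfer was 100 nL into about 20 µL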
# Target sequence (Q9Y5K5 whole entry, looked up): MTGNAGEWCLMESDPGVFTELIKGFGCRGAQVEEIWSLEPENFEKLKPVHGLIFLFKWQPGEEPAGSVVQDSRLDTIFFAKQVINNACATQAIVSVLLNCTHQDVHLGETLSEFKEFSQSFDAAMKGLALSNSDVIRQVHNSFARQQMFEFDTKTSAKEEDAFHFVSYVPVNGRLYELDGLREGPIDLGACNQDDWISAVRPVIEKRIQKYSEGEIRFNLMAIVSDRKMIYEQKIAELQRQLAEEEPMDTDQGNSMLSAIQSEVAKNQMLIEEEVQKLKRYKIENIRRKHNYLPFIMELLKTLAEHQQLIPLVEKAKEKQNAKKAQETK
#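 Reagent: Ub-AMC substrate; assay system: Proteasome-associated human UCH37 deubiquitinase; controls: no-proteasome and no-compound wells; read-out: % inhibition of Ub-AMC cleavage fluorescence; timing: 30 min preincubation with enzyme, 25 min cleavage at room temperature; signal: AMC fluorescence from Ub-AMC cleavage, excitation 355 nm, emission 460 nm; buffer or medium: Tris-HCl pH 7.4 plus ovalbumin, ATP-MgCl2, DTT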
# Calb FLC: affects C. albicans growth with fluconazole. C. albicans CaCi-2 (fluconazole-resistant clinical isolate) + fluconazole, Alamar Blue growth, 48 h. growth inhibition, % (test concentration not listed). hit rate 0.57% among 300,000. AID 1979;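 active = most replicates above 75%; inconclusive = exactly half above 75%; inactive = most below 75%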;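 note: all wells also contain fluconazole at 8 µg/ml as a sub-toxic cotreatment; 0% = median of DMSO wells and 100% = median of geldanamycin control wells; wells of about 8 µL received 7.5 nL stock; the first replicate is given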
# T cruzi inh: blocks replication of Trypanosoma cruzi; inhibition, % (test concentration not listed); hit rate 1.4% among 300,000; T. cruzi beta-gal in NIH3T3, luminescence, 90 h;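 active = mean inhibition across valid replicates above about 55%, limit read from the data; inconclusive = mean below that limit but half or more replicates reach it; inactive = mean below it, under half of replicates reach it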;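 note: signal also drops with host cell toxicity which is not excluded here; 0% = plate median of DMSO wells and 100% = zero luminescence signal; higher percent means less beta-gal luminescence so fewer parasites; stock transfer was 50 nL into about 50 µL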
# Starred values were filed as active, the others as inactive; ? = inconclusive; nt = no result given.
SMILES,RanGTP-Imp inh,A1 inh,LANA-H2B inh,Beta cell apopt,Beta2AR agonist,UCH37 inh,Calb FLC,T cruzi inh
COCC(=O)Nc1sc2c(c1C(=O)OC)CCCC2,1.0,-0.3,-1.7,-6.5,-1.3,-5.8,-5.1,1.8
C/C(CC(O)c1ccc2ccccc2n1)=N/O (configuration not stated),2.5,-0.5,-1.2,-6.9,0.2,nt,-6.3,-3.8
CCCCCCSc1ccc([C@@H]2[C@@H]3C(=O)N(C)C(=O)[C@@H]3[C@]3(C(=O)OC)CCCCN23)cc1,nt,-0.9,1.0,8.8,18.0,5.3,nt,nt
OCCOCCn1c(C(CO)Nc2nc(-c3ccc(F)cc3)cs2)nc2ccccc21 (configuration not stated),1.0,0.5,0.4,-5.6,-5.6,-0.3,-3.8,5.1
COc1cc(S(=O)(=O)NCc2ccccc2)ccc1Br,-1.0,0.3,-1.2,4.0,0.9,2.1,5.7,11.1
COc1ccc(OC)c(-c2csc(NC(=O)CSc3ccccc3)n2)c1,2.4,-0.2,-2.8,3.9,3.9,3.5,-2.8,-8.9
COc1cc(OC)cc(C(=O)Nc2nc(-c3ccccc3)c(-c3ccccc3)o2)c1,1.1,0.2,-2.2,24.6,-190.0,-2.5,-19.4,28.5
CC(=O)Nc1nnc(C2=COCCO2)o1,-2.9,-0.5,-2.8,-7.7,0.3,4.6,13.1,-2.1
Cc1ccccc1CC1(CO)CCCN(Cc2cn[nH]c2-c2ccccc2)C1 (configuration not stated),4.8,0.2,-1.7,-3.4,8.5,5.4,8.0,-9.3
CCOC(=O)C1CCN(Cc2cc(Cl)c3ccccc3c2O)CC1,0.3,0.2,1.5,5.8,5.7,-52.8,39.1,18.4
N#Cc1ccc(OCC(O)CN2CCN(C(c3ccccc3)c3ccccc3)CC2)cc1 (configuration not stated),-1.0,0.4,-2.3,-3.6,13.9,-0.3,-10.5,0.8
N#CCc1ccc(NC(=O)Nc2cccc(Cl)c2)cc1,2.5,-0.1,-0.2,4.6,16.2,nt,-9.5,16.3
CC(NC(=O)COC(=O)c1ccc(OCC2CCCO2)cc1)c1ccccc1Cl (configuration not stated),nt,0.7,3.2,-4.7,-7.0,1.8,nt,nt
COC(=O)c1ccc(Oc2ccc(C(F)(F)F)cn2)cc1,7.3,-0.1,-4.4,-3.1,3.7,1.4,-6.4,-16.2
c1ccc(-c2cc3c(nn2)CCc2nonc2-3)cc1,2.7,-0.2,-0.3,1.8,6.5,6.4,-1.5,2.2
O/N=C1\CC/C(=N\O)c2nn(-c3ccccc3Cl)nc21,0.8,0.0,-0.4,-7.5,-2.0,nt,19.7,-2.0
O=[N+]([O-])c1ccc(Cc2cncc(O)c2)cc1,-2.4,0.0,1.1,-4.3,-6.0,1.3,7.3,-6.4
O=C(CN1C(=O)CSc2ccccc21)NCCC1=CCCCC1,-13.1,0.5,8.9,0.7,1.5,0.6,-9.9,3.1
C#CCNC(=O)C1CCN(c2cc(C)nc(-c3ccccc3)n2)CC1,-0.5,0.5,1.0,0.5,-1.7,0.0,-43.1,-18.0
CNS(=O)(=O)c1cc(Br)ccc1S(=O)c1ccccc1C(=O)O (configuration not stated),-0.8,-0.7,-2.5,-9.1,-5.8,1.6,0.3,-10.6
CCOc1ccc(S(=O)(=O)N2CCCC(C(=O)N3CCN(c4ccccc4)CC3)C2)cc1 (configuration not stated),0.0,0.3,0.7,4.4,-5.5,-0.5,-2.2,13.4
O=C1N=C2SCCN2/C1=C\c1ccccc1Cl,?,-0.2,-0.8,5.0,4.2,1.5,2.6,0.4
COc1ccc(CN(CC(=O)NCC2CCCO2)C(=O)CNS(=O)(=O)c2ccc(C)cc2)cc1 (configuration not stated),8.4,-1.0,3.2,-7.4,1.9,5.6,-8.5,4.4
O=C(NCCc1ccccc1C(F)(F)F)C1CCC(=O)N(CCCN2CCCC2=O)C1 (configuration not stated),0.4,0.1,-5.7,-1.6,-1.3,0.3,-7.1,-18.6
COc1ccc(CC(NC(C)=O)C(=O)N2CCN(C(=O)Nc3ccc(Cl)cc3)CC2)cc1OC (configuration not stated),nt,0.0,-5.5,nt,-5.3,6.8,nt,nt
O=C(C[C@H]1C/C=C\CC[C@@H](Cc2ccc(F)cc2)C(=O)OC[C@H]2CCCN2C1=O)N[C@@H](CO)Cc1ccccc1,nt,-1.2,1.0,-0.3,-2.8,0.7,nt,nt
CCOc1ccccc1N(CC(=O)OC)S(C)(=O)=O,-0.4,1.0,0.8,nt,11.6,3.1,-2.3,-16.3
Cc1c(Cl)cccc1NC(=O)CN(C1CCCCC1)S(C)(=O)=O,?,-0.3,-0.8,-2.3,4.3,2.8,-0.3,-3.0
Cc1cccc(NNC(=O)c2c(F)cccc2Cl)c1,1.1,0.9,0.5,-13.3,-5.8,2.1,-1.4,7.5
O=C(CCSc1ccccc1)N1CCOCC1,-0.9,1.1,5.4,-8.8,1.1,0.7,-1.4,-7.3
CCOC(=O)CN1C(=O)C(=O)N(Cc2ccccc2F)C1=O,?,-0.3,-0.4,-4.0,-15.4,6.4,7.6,-8.5
Cc1[nH]c2c(C)cccc2c1CC(=O)O,0.4,-0.5,1.5,-10.0,-1.2,0.9,6.2,-11.1
O=C(Nc1ccc(Cl)c(Cl)c1)c1cccc(S(=O)(=O)NCc2cccnc2)c1,-0.3,1.0,-6.3,2.5,-3.2,1.9,8.8,47.6
c1csc(CNc2ncnc3ccc(-c4ccoc4)cc23)c1,nt,0.1,1.8,-35.0,11.5,-1.8,nt,nt
Cc1cc(NS(=O)(=O)c2ccc(NC(=O)c3ccco3)cc2)nc(C)n1,-2.4,0.2,0.4,-5.0,5.7,5.5,14.7,-4.2
CCOc1cc(C(=O)N(CC)CC(=O)Nc2c(F)cccc2F)ccc1OCC(=O)N1CCCCC1,4.7,-0.5,-1.3,-1.1,0.1,2.1,1.4,3.1
C/C(CC(=O)Nc1ccccc1Cl)=N\NC(=O)C(=O)NCCO,3.7,-1.0,3.3,-5.1,-4.7,nt,-11.7,-11.7
O=C1NC(c2ccccc2)=CC(c2ccccc2O)N1 (configuration not stated),-1.5,-0.6,-2.0,-5.7,-0.9,2.5,-0.5,-21.7
COc1ccc(C(CCNCc2ccc(N(C)C)cc2)c2ccccc2)cc1 (configuration not stated),0.8,-0.8,2.9,28.2,11.8,3.5,1.5,29.4
CC(=O)Nc1ccc(S(=O)(=O)N(C)CC(=O)Nc2ccc(F)c(F)c2F)cc1,nt,0.1,-6.7,-0.5,-0.6,0.9,nt,nt
Cc1cc(-c2ccccc2)c2c(=O)n(-c3ccccc3)[nH]c2n1,-2.2,0.0,1.6,5.2,-12.1,3.2,-5.9,-0.6
O=C(CSc1nccc(=O)[nH]1)Nc1ccc2ccccc2c1,nt,-0.3,4.1,-3.8,2.3,0.8,nt,nt
Cc1cccc(NC(=O)/C(C#N)=C/c2cn(CC(=O)NCc3ccco3)c3ccccc23)c1C,56.7*,0.1,-1.3,-3.8,-17.0,-120.4,-13.2,-4.3
O=C(NCCCO)c1cc2c([nH]c3ccccc32)c(-c2ccc(F)cc2)n1,0.7,-1.6,2.5,9.8,11.6,-62.1,12.4,13.8
COc1ccc(NC(=O)CCNC(=O)C2CCN(S(=O)(=O)c3ccc(F)cc3)CC2)cc1OC,2.7,0.3,11.5,-7.7,-1.3,1.5,-8.3,-15.4
CCc1ccc(C(=O)NC2CCCCC2)s1,-3.4,-3.7,0.0,-0.5,5.1,-0.6,-18.6,-24.2
CCN1CCN(S(=O)(=O)c2ccc3c(c2)NC(=O)CS3)CC1,3.4,?,-1.7,3.1,3.6,1.7,-15.1,2.6
O=C(N/N=C1\CCCc2ccccc21)c1ccc([N+](=O)[O-])cc1,?,-0.6,-0.2,nt,-12.7,nt,?,-2.4
O=C(CC1SC2=NCCN2C1=O)Nc1ccccc1 (configuration not stated),-2.3,0.9,3.4,-10.4,0.2,4.2,-11.8,-11.2
CCCc1cc(=O)oc2c(C)c(OCc3nn[nH]n3)ccc12,-1.9,0.7,-11.0,-5.9,-7.4,-76.2,-1.3,-9.3
CCN(CC)S(=O)(=O)c1ccc(-c2nnc(SC)o2)cc1,4.1,1.2,2.2,-5.3,-10.6,6.1,-18.4,-10.8
N#CC(c1nc2ccccc2nc1N1CCOCC1)S(=O)(=O)c1ccccc1 (configuration not stated),16.3*,-0.2,2.6,5.4,7.0,6.1,5.5,nt
CN(C)S(=O)(=O)c1ccc(NC(=O)c2cc(F)c(F)cc2Cl)cc1,?,1.3,-4.0,-3.1,-18.5,0.9,6.2,-2.0
Cc1ccc(Cn2nnc3c(=O)[nH]c(C4CCCN(C(=O)c5ccco5)C4)nc32)cc1 (configuration not stated),5.7,-0.6,-1.3,-3.8,3.6,1.7,-1.7,-0.4
O=C(CCC(=O)N1CCOc2ccccc21)NC1CCCCCC1,1.3,0.6,3.9,-13.5,-9.8,1.8,2.7,-6.8
C[C@H]1CC[C@H]2C(=O)N3[C@H](c4ccccc4Br)[C@@H](C)CC[C@H]3C(=O)N2[C@@H]1c1ccccc1Br,5.8,-1.2,3.1,110.2*,nt,nt,-17.9,45.0
O=C1c2cccc3cccc(c23)C(=O)N1Cc1ccco1,nt,0.1,-7.9,-0.3,4.7,-96.2,0.2,3.7
CS(=O)(=O)N1CCCC(C(=O)NCc2ccco2)C1 (configuration not stated),-4.0,0.2,2.2,-4.3,3.6,1.6,18.8,-6.7
C(=C\c1ccccc1)/CSc1nnc(-c2ccccc2)n1Cc1ccco1,-1.3,-0.3,-2.6,16.6,15.9,5.3,9.0,-18.0
Cc1ccccc1S(=O)(=O)Cc1ccc(C(=O)N2CC(C)CC(C)C2)o1 (configuration not stated),2.7,-0.8,-3.4,-8.9,3.6,4.0,29.1,9.3
# (next part)
SMILES,RanGTP-Imp inh,A1 inh,LANA-H2B inh,Beta cell apopt,Beta2AR agonist,UCH37 inh,Calb FLC,T cruzi inh
CC(C)NC(=O)N(O)C1N(Cc2ccc3c(c2)OCO3)C(=S)SC1(C)C (configuration not stated),2.1,-0.2,2.6,nt,4.3,5.7,-15.8,11.2
CC1CCCCN1C(=O)CSc1nnc2c(n1)[nH]c1ccccc12 (configuration not stated),-1.4,-0.7,-0.8,9.4,2.2,7.1,-3.9,3.8
CNC(=O)c1ccc(NC(=O)c2cc(S(=O)(=O)N3CCOCC3)ccc2N2CCCC2)cc1,nt,0.6,4.2,-4.2,-6.7,5.2,nt,nt
CC(=O)Nc1ccc(Cl)c(C(N)=O)c1,-0.8,-0.3,-0.1,-7.0,-4.5,-0.5,-30.5,-8.6
Cc1ccc(NC(=O)CN(C)C(=O)CCSc2ccc(F)cc2)cc1,nt,-0.5,17.8*,-2.6,7.2,-0.3,nt,nt
Cc1cc(C(=O)COC(=O)c2nccnc2N)c(C)n1C,-0.8,-0.3,-4.1,-1.9,-8.3,-22.6,1.2,-18.1
